Source: PubChem (National Center for Advancing Translational Sciences (NCATS))
Menin-MLL FL inh = inhibitors of human menin-MLL interaction, wild-type MLL peptide; FP activity change, % at 61.4 µM; 290,000 tested, under 10 active; AID 1766; Fluorescence polarization, fluorescein-MLL peptide displacement from menin; inconclusive = falling polarisation curve, or a change in total fluorescence; inactive = total fluorescence flat and polarisation flat or rising; no compound was filed as active; the % refers to the polarisation; negative = inhibition;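 further: % of control where 0% means no effect; inhibitors lower the polarisation; unlabelled MLL peptide was the positive control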
gsp agonist = gsp mutant agonism | Potency, µM (doses to about 76.9 µM), for inactives: at the top dose activation (cAMP increase), usual class: activators | gsp mutant cells, cAMP HTRF, 30 min; control for the full effect not named in the record | actives 0.13% (n = 340,000) | AID 624287; active = well fitted activation curve with a large enough effect; inconclusive = small, poorly fitted or top-dose-only effect, or another doubt; inactive = no such curve, though single readings can be large or run the other way; cell line not stated here;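 further: phosphodiesterase inhibitor Ro 20-1724 added with compounds to block cAMP breakdown; potency means the concentration at half of the fitted maximal effect; nearly all actives have a fitted effect of over 60% in size; about a fifth of the inactives were tested at one dose only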
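Cells in DMEM/10% FBS with G418 were pretreated with compounds in DMSO plus […] (300 uM stock) for 30 min at 37C. cAMP was measured by HTRF (cAMP-d2 plus anti-cAMP antibody-K) after 30 min at room temperature.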
gsp antagonist = antagonists of gsp mutant (McCune-Albright syndrome) | gsp-mutant cells, cAMP HTRF, 30 min; control for the full effect not named in the record | actives 0.4% (n = 340,000) | Potency, µM (highest dose often 76.9 µM), inactives show top-dose activity change, negative = inhibition, actives largely listed as inhibitors | AID 624288; active = falling curve of any shape with a large fitted effect; inconclusive = falling curve, mostly with a smaller effect; inactive = flat or rising curve; cell line not stated here;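 further: intracellular cAMP measured with PDE inhibitor Ro 20-1724 present during compound exposure; potency means the concentration at half of the fitted maximal effect; on the % scale 0 is the no-effect control and ±100 the full control effect; nearly all actives have a fitted effect of over 65% in size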
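G418-selected cells were plated in DMEM/10% FBS for 16-24 h at 37C, then treated with compounds plus the PDE inhibitor […] (300 uM solution added) for 30 min at 37C. Intracellular cAMP was measured by HTRF after 30 min lysis at room temperature.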
Sfp PPTase inh = Sfp phosphopantetheinyl transferase inhibition; Q9F4F7; Biochemical Sfp PPTase activity, qHTS; Potency, µM, for inactives: max response, negative = inhibition, hits mostly inhibitors; actives 3.5% (n = 310,000); active means well fitted inhibition curve with a large enough effect; inconclusive means small, poorly fitted or top-dose-only effect, or another doubt; inactive means no such curve, though single readings can be large or run the other way;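 further: the enzyme is Sfp with the accession as filed and its product quenches rhodamine fluorescence; potency means the concentration at half of the fitted maximal effect; 0% = enzyme reaction without inhibitor and -100% = no enzyme wells; top concentration of the series not given in the record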
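Fluorescence-quenching assay: 15 nM Sfp-PPTase preincubated 15 min at room temperature with compound, then 5 uM rhodamine-CoA and 12.5 uM BHQ-2-labelled YbbR peptide added. Fluorescence (ex 525/em 598 nm) read at start and after 30 min; difference gives rate.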
TRPML1 inh = inhibitors of human TRPML1 channel; actives 0.02% (n = 390,000); activity change, negative = inhibition, % (concentration not given with the values); Q9GZU1; TRPML1-inducible cells, Ca2+ dye fluorescence, FDSS; stronger effect = lower value; inhibition of EC80 agonist-evoked calcium signal; in the data active means activity change below about -50%; inconclusive means about -30% to -50%; inactive means above about -30%;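 further: stimulus is agonist 54-4 at its EC80 concentration; on the % scale 0 is the no-effect control and ±100 the full control effect; compound concentration not given in the record; the text of the record puts the active cut at -80%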
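Tet-induced TRPML1-DL cells loaded with Ca8 no-wash calcium dye were read kinetically on FDSS. Compound addition was followed by EC80 agonist 54-4 (4 uM final); inhibition was read over 110 s.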
TRPV1 PAM = potentiators of human vanilloid receptor 1 (TRPV1). potentiation, % at 8.33 µM. Q8NER1. TRPV1-expressing cells, Fluo-8 calcium influx, capsaicin EC20 potentiation; host cell line not named in the record; control for the full effect not named in the record. actives 0.02% (n = 320,000); active means potentiation above 80%; inconclusive means 30% to 80%; inactive means below 30%; further: 0% is about no effect
Target sequence (Q8NER1 whole entry, looked up): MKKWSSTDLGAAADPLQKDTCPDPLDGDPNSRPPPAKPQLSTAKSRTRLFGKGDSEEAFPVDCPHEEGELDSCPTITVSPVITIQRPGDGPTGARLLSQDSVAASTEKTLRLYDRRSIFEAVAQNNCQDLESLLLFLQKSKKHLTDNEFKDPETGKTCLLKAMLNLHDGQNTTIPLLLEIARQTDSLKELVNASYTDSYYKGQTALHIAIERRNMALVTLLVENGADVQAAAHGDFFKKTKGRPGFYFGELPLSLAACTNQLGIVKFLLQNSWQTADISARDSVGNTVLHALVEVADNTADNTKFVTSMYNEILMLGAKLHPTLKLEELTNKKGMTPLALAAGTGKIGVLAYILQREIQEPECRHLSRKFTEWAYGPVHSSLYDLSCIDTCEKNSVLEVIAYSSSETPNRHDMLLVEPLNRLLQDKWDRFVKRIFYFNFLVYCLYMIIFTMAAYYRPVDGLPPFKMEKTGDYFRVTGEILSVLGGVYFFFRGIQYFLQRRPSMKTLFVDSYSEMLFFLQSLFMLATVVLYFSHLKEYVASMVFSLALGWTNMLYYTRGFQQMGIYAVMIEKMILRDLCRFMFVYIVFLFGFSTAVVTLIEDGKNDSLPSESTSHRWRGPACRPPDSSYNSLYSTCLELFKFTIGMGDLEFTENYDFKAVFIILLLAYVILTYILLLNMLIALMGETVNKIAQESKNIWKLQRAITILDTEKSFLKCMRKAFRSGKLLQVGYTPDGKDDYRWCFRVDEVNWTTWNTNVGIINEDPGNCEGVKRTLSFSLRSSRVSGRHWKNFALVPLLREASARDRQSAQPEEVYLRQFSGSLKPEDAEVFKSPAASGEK
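Cells expressing TRPV1 were dye-loaded with Fluo-8 and read kinetically: 10 s baseline, 3 min after compound (agonist portion), then 2 min after EC20 capsaicin (allosteric enhancer portion). Calcium-bound dye fluorescence at 480/520 nm.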
ClpP mod = qHTS Assay for Activators of ClpP; ATP-dependent Clp protease proteolytic subunit (Bacillus subtilis (strain 168)), P80244; purified B. subtilis ClpP, FRET peptide cleavage, 20 min; Potency, µM (top dose mostly 57.5 µM), without a hit: top-dose activity change, negative = active; actives 1.9% (n = 340,000); AID 651965, 2013; active = well fitted falling curve with a large enough effect; inconclusive = small, poorly fitted or top-dose-only effect; inactive = no such curve, though single readings can be large or run the other way; further: potency means the concentration at half of the fitted maximal effect; the source files actives as falling curves though it sought activators and does not explain the sign; nearly all actives have a fitted effect of over 65% in size; many hits overshoot -100%
Target sequence (P80244 whole entry, looked up): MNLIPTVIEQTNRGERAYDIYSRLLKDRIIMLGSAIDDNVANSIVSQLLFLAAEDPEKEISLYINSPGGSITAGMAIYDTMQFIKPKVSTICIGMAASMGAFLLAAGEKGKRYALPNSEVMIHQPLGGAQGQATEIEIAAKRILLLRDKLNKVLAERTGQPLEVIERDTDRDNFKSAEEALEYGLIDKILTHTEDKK
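ClpP 10 microg/mL final, pH 8 Tris/KCl buffer with BSA, glycerol, Tween-20; compound pinned in; FRET-FV substrate; RT 20 min; Ex320/Em430; ΔFRET vs ADEP 5.8 microM, DMSO, no enzyme.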
Active calls of the source: *; ? = inconclusive; nt = no result given; & = joins results of further samples; [ ] = remark or other dose. An unsorted share of the library; overall some 4.9% were active at least once.

SMILES	Menin-MLL FL inh	gsp agonist	gsp antagonist	Sfp PPTase inh	TRPML1 inh	TRPV1 PAM	ClpP mod
Cn1c(=O)oc2cc(S(=O)(=O)N3CCC(C(=O)NCc4ccccc4Cl)CC3)ccc21	0.7	1%	10%	19%	9&5	-1	1.1%&-0.4%
Cc1csc(NC(=O)CCNC(=O)c2ccccc2Cl)n1	-0.6	8%[15.4 µM]	nt	-11%	-11	10	nt
O=C(CNC(=O)c1ccccc1F)OCc1nc2ccccc2s1	8.2	4%[15.4 µM]	14%	10%	30	-2	0.3%
Cc1ncoc1C(=O)N1CCCC(N2CCN(c3ccccc3F)CC2)C1 (stereo not given)	nt	-51%[inhibitor]	-13%	7%	-7	25	2.3%
COC(=O)Cn1cnc2scc(-c3ccc(C)c(C)c3)c2c1=O	0.5	-18%	?	8%	1	-18	nt
COc1ccc(-c2nnc(SCC(=O)NC(=O)NCc3ccco3)o2)cc1	3.9	-26%	8%	4%	10	-27	0.1%
CN1OC[C@@H]2CN(Cc3cc(Cl)cc(Cl)c3)[C@H](c3cccc(Oc4ccccc4)c3)C[C@@H]21	nt	nt	-11%	nt	54	nt	-1.1%
N#CCN1CCCC(C(N)=O)C1 (stereo not given)	2.0	26%	-2%	12%	-3	4	0.6%
CCCCCCCCCCOC(=O)C[N+](C)(C)C/C=C(/C)Cl	7.0	?	10%	-18%	21	-7	1.3%
COc1cc(C(=O)NCC(=O)OCc2ccccc2Cl)cc(OC)c1OC	-1.0	-8%	-8%	8%	-5	6	-0.7%
Nc1cc(C(F)(F)F)cc([N+](=O)[O-])c1N	0.2	-11%	10%	6%	9	2	0.6%
CCC(=O)Nc1ccc(C(=O)COC(=O)Cc2ccsc2)cc1	nt	1%	7%	nt	9	8	-4.0%
COc1ccc(C2NC3=C(CCC3)C3(C#N)C4(N=C(N)C23C#N)OCCO4)cc1 (stereo not given)	?	14%	45%[activator]	-5%	-18	-18	-11%
COC(=O)c1ccc(-c2ccc(C3C4C=CCC(C)C4C(=O)N3Cc3ccccc3)c(F)c2)cc1 (stereo not given)	0.2	nt	nt	?	56	nt	nt
O=C(CSc1ncccn1)Nc1ccc(N2CCOCC2)cc1	-1.4	-56%[inhibitor]	-7%	-5%	47	0	1.7%
Cc1cc(=O)oc2cc(NC(=O)C3CC(=O)N(Cc4ccccc4)C3)ccc12 (stereo not given)	2.0	0%	-4%	18%	-16	3	39%
CC(=O)Nc1ccc(OC(=O)c2cc([N+](=O)[O-])ccc2Cl)cc1	4.7	-1%	-7%	8%	8	0	?
CC(C)(C)c1ccccc1OCCOCCN1CCCCCC1	-4.1	-23%[15.4 µM]	-5%	-9%	28	7	nt
Cn1cc(CN2CCC(CO)CC2)c(-c2ccc(Oc3ccccc3)cc2)n1	-3.5	1%	6%	19%	1	0	nt
N#Cc1ccccc1CSc1ncccc1C(=O)O	-22	-55%[inhibitor]	-4%	13%	-10	-19	nt
Cc1ccc(NC(=S)N/N=C2\CC(C)(C)Oc3ccc(O)cc32)cc1	0.2	-6%	-2%	30%[activator]	38	-1	-24%
COc1cc(NC(=S)NC(C)=O)ccc1NC(=O)C(C)C	3.0	-1%	-8%	2%	23	2	-3.4%
COc1ccc(-c2cnc(SCC(=O)Nc3cc(C)on3)n2Cc2ccco2)cc1	-0.6	-6%[15.4 µM]	-16%	8%	6	4	-1.0%
NC(=O)c1ccsc1NC(=O)COC(=O)COc1ccccc1[N+](=O)[O-]	nt	-7%	-8%	nt	-2	9	-1.3%
CCCCNC(=O)C(=O)Nc1ccc2c(c1)N(S(=O)(=O)c1cccs1)CCC2	nt	1%	nt	nt	79	nt	7.4%
More compounds
SMILES	Menin-MLL FL inh	gsp agonist	gsp antagonist	Sfp PPTase inh	TRPML1 inh	TRPV1 PAM	ClpP mod
CS(=O)(=O)N1CCCC(C(=O)NCCc2ccc(Cl)cc2)C1 (stereo not given)	3.0	11%	1%	0%	-12	15	-2.2%
Cc1ccc(C(=O)O)cc1[N+](=O)[O-]	nt	nt	1%	nt	21	1	-0.4%
C1CCN(c2nc(N3CCCCC3)nc(N3CCNCC3)n2)CC1	3.8	2%	1%	7%	-7	-20	0.8%
COc1cc([N+](=O)[O-])ccc1NC(=O)/C=C/C(=O)O	-0.4	18%[15.4 µM]	-8%	-25%	56	-19	nt
Cc1cc2occ(CC(=O)N(C)CC(=O)Nc3ccccc3Cl)c2cc1C	nt	-21%	-12%	nt	-6	-1	-24%
COc1ccccc1Nc1ncnc2c1c(C)c(C)n2CCO	-5.2	0%[15.4 µM]	6%	3%	6	1	nt
O=C(O)Cn1c(SC2CCCCC2)nc2ccccc21	-0.4	-21%	7%	20%	-12	12	0.4%
COC(=O)CSc1n[nH]c(-c2ccncc2)n1	-2.2	-4%	-3%	-18%	-5	3	-4.1%
CN(c1ccccc1)S(=O)(=O)c1cccc(NC(=O)COc2ccccc2)c1	nt	26%	-18%	nt	-11	13	-3.7%
O=C(c1ccccc1OCc1ccc(Cl)cc1)N1CCN(c2ccccn2)CC1	nt	-1%[15.4 µM]	-18%	nt	35	-25	nt
CN(CC(=O)Nc1ccc2c(c1)OCCO2)S(=O)(=O)c1cccc2cccnc12	1.0	-34%[inhibitor]	-7%	7%	-12	nt	1.2%
O=C(CS(=O)(=O)c1ccccc1)Nc1ccccn1	-2.2	15%	2%	9%	16	-5	-2.0%
CC1(C)CC2CC(C)(CN2C(=O)c2cc(-c3ccccc3O)on2)C1 (stereo not given)	2.7	0%	-4%	-8%	-9	nt	-2.9%
COc1ccc(N2C(=O)c3ccccc3NC2c2ccc(OC)c(CSc3ccccn3)c2)cc1 (stereo not given)	5.5	?	8%	18%	-4	14	25µM*
COc1c([N+](=O)[O-])cc(C(=O)NNC(=O)c2ccc(C)cc2)cc1[N+](=O)[O-]	-2.1	-21%	-14%	23%	1	6	nt
Cc1ccc(NC(=O)COC(=O)CN2CCSC2=O)cc1Cl	nt	?	nt	nt	2	nt	1.8%
COCCn1c(COc2ccc(OC)cc2)nc2ccccc21	1.6	-11%	-2%	14%	4	-5	-1.8%
O=C(CNC(=O)c1cccc(S(=O)(=O)N2CCc3ccccc32)c1)Nc1ccc(F)c(F)c1F	nt	14%	-21%	nt	-3	-8	1.8%
Cc1ccc(S(=O)(=O)Nc2nc3ccccc3nc2N2CCN(c3ccccc3F)CC2)cc1	2.5	-1%	-7%	-16%	10	-1	-11%
CCCCCCn1c(N)c(C#N)c2ccc([N+](=O)[O-])cc2c1=O	?	-6%	-4%	5%	8	13	-0.7%
O=C(O)CCC(=O)N1CCN(c2ncccn2)CC1	-0.7	15%	8%	-10%	10	-9	nt
Cc1ccc([C@H]2C[C@H](O)[C@@H](n3cc(C4CC4)nn3)CN2Cc2cccs2)cc1	nt	-17%	nt	nt	19	nt	-4.0%
COC(=O)[C@H](Cc1c[nH]c2ccccc12)NC(=O)CCCc1c[nH]c2ccccc12	-5.7	5%	-5%	14%	3	-6	-2.5%
O=S1(=O)[C@H]2C[C@@H]3C=C[C@@]2(CN1Cc1ccccc1F)O3	-3.7	-52%[inhibitor]	7%	2%	-18	-7	0.2%
O=C(NCCCN1CCCC1=O)c1csc2ccccc12	1.8	4%	8%	20%	-1	-3	0.2%
Carrying on.
SMILES	Menin-MLL FL inh	gsp agonist	gsp antagonist	Sfp PPTase inh	TRPML1 inh	TRPV1 PAM	ClpP mod
COc1cccc(NC(=O)CSc2nnc(CN3CCOCC3)n2C)c1	-1.3	-37%[inhibitor]	5%	9%	-8	2	0.5%
COCCNc1nc2nonc2nc1N1C[C@H]2CC[C@H]1C2	-2.1	-4%[15.4 µM]	-38%	-1%	-10	-1	nt
COCCn1c(=NC(=O)CCS(=O)(=O)c2ccccc2)sc2cc(C(=O)OC)ccc21	nt	?	19%	6%	21	3	-20%
CCCNc1nc(NCC)nc(OC)n1	13	-15%	7%	7%	-1	28	-5.7%
CN(C)CC1(c2ccccc2)CCCC1	-1.5	-14%	5%	-12%	-16	5	-3.1%
Cc1nc(NCc2ccccc2)sc1C(=O)Nc1ccccc1	-1.0	5%[15.4 µM]	?	6%	-23	0	nt
COc1ccc(NC(=O)c2nc[nH]c2C(=O)Nc2ccccc2C)cc1	-2.2	-12%	22%	12%	3	2	72%
O=C(NC(=O)c1ccccc1)OCC1CCCN2CCCCC12 (stereo not given)	-7.6	-27%	14%	22%	4	-3	1.9%
Cc1cc2ccccc2nc1-c1ccccc1F	nt	5%	-8%	nt	11	nt	-1.3%
NC(=O)C(CCCCN1CCCCC1)(c1ccccc1)c1ccccc1	nt	-28%	5%	nt	27	nt	4.8%
CCN(CC)c1nc2c(c(=O)n(C)c(=O)n2C)n1CCCc1ccccc1	-0.6	19%	-10%	9%	6	-10	1.7%
CCC(CC)NC(=O)COC(=O)c1ccc(OCC(=O)Nc2ccccc2OC)c(OC)c1	2.5	?	17%	11%	-7	-1	-2.4%
Cn1sc2ccccc2c1=O	nt	-77%[inhibitor]	nt	nt	2	nt	0.8%
CCOC(=O)N1CCN(c2nc3ccccc3nc2C(C#N)C(=O)NCCc2ccccc2)CC1 (stereo not given)	?	25%	-4%	15%	-10	28	14µM*
Cc1c(CC(=O)N2CCN(C(=O)C3COc4ccccc4O3)CC2)c(=O)oc2c(O)c(O)ccc12 (stereo not given)	nt	9%[15.4 µM]	-12%	-24%	0	23	nt
CC1CCN(S(=O)(=O)c2ccc(N/N=C(/C#N)C(N)=O)cc2)CC1	6.0	0%	7%	2%	1	4	-5.2%
CC1Cc2ccccc2N1Cc1cc(=O)n2ccsc2n1 (stereo not given)	-13	-9%	-13%	-24%	-4	-2	-5.0%
CC(=O)c1cccc(NC(=S)NC(=O)CC(C)C)c1	2.8	7%	8%	14%	-5	-5	-1.2%
COc1ccc(C(C(=O)NC(C)(C)C)N(Cc2cccs2)C(=O)CCC(=O)Nc2cc(C)on2)cc1 (stereo not given)	0.4	12%	-4%	3%	10	-13	-0.1%
COc1ccnc(-n2cccc2/C=N/O)c1C#N	2.7	3%[15.4 µM]	-26%	18%	20	-1	nt
COc1ccc(NC(=O)COC(=O)/C=C/C(=O)OCC(=O)Nc2ccc(OC)c(Cl)c2)cc1Cl	4.0	8%	5%	79µM*	-19	-1	-1.2%
